From PubChem BioAssay
Mtb hypoxia rep = reduces hypoxia-regulated biosensor signal in M. tuberculosis; fluorescence inhibition, % (concentration not given with the values); 0.1% of 300,000 active; M. tuberculosis hypoxia-regulated fluorescent reporter, fluorescence;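 active = 35 to 45% if threefold the growth effect, above 45% if 1.5-fold the growth effect; inactive = the rest, general growth blockers included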;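 note: wells of about 50 µL received 100 nL stock; 0% = vehicle wells and 100% = reference inhibitor wells; whole bacteria with a GFP reporter of the hypoxia response; strong numbers were not always called active; many hits fall short of the cut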
Bead autofluor = counter-screen for toxin protease inhibitors: compound fluorescence. compound autofluorescence counterscreen, microsphere flow cytometry; active compounds read high. fluorescence intensity (no concentration beside the values). 3.1% of 360,000 active. AID 624483;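 active = at least 3 SD above the mean of all compounds, about 16000 in these data; inconclusive = too few beads counted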;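 note: 100 nL of 1 mM stock went into each well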
RN4220 kill = S. aureus RN4220 growth inhibition; OD600, 16 h; inhibition, % (no concentration beside the values); 0.33% of 330,000 active; AID 1259311;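 active = z-score of -3 or lower and OD600 up to 0.18 on both plates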;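 note: plate controls were untreated cells for no effect and reference antibiotic for full effect; stock transfer was 100 nL into about 80 µL; one replicate is shown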
BJeLR viability = kills HRASV12-expressing BJeLR cells | 0.17% of 300,000 active | BJeLR (HRASV12) viability, CellTiter-Glo ATP luminescence, 48 h; reference of the scale not given here | inhibition, % (concentration not given with the values);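 active = replicate mean above 50%; inconclusive = above 50% but judged a plate artefact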;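 note: 50 nL library stock added to about 25 µL; numbers are from one replicate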
ugtP null kill = compounds lethal to S. aureus RN4220 ugtP deletion mutant | OD600 growth, 16 h; some inactives read as strong as hits | growth inhibition, % (no concentration beside the values) | 0.54% of 330,000 active;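 active = z-score under -3 and OD600 up to 0.15 on both plates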;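 note: plate controls were untreated wells for no effect and antibiotic for full effect; wells of about 80 µL received 100 nL stock; the first replicate is given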
PrP 5UTR inh = inhibition of PrP 5' UTR reporter expression; 0.35% of 340,000 active; inhibition, % (concentration not given with the values); cell-based PrP 5' UTR mRNA reporter, plate reader;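 active = every replicate at 50% or more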;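 note: 0 = median of the neutral control wells; tested in H4 reporter cells; numbers are from one replicate; inactives centre near -14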
Mtb hypoxia rep growth = recorded beside Mtb hypoxia rep, whose call it bears; growth inhibition, %; measured here: M. tuberculosis growth (absorbance);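 0% = vehicle and 100% = reference antibiotic; read after six days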
* hit, by the source's call; ? = inconclusive; . = no result given; & = joins results of further samples.

structure	BJeLR viability	Mtb hypoxia rep	PrP 5UTR inh	Mtb hypoxia rep growth	RN4220 kill	Bead autofluor	ugtP null kill
O=C(O)CCc1nn2c3ccccc3nc2n(Cc2ccccc2)c1=O	5	-1	-15	-5	3.4	5167	8
CC(C)=CCC/C(C)=C/CC/C(C)=C/CC/C(C)=C/CC1=C(C)C(=O)c2ccccc2C1=O	1	.	-13	.	.	3986	.
COc1ccc(NC(=O)c2ccc(NC(=O)CSc3nccc(=O)[nH]3)cc2)cc1	-4	12	-17	7	2.4	4215	14
COc1cccc(CN2CCCC(CNC(=O)c3ccc(F)cc3)C2)c1OC (centres undefined)	-6	10	-26	4	0.5	2702	6
N#CCCn1cc(C(=O)NCc2ccccc2)c(-c2ccccc2)n1	-6	13	-1	9	0.4	4410	0
CC1(C)CC(CC(=O)O)(c2ccc(Cl)cc2)CCO1 (centres undefined)	9	-9	-2	-1	13	3201	1
O=C(NCc1cccc(Cl)c1)NC(=O)c1csc([N+](=O)[O-])c1	2	-7	-16	-7	-0.6	6533	-3
Cc1noc(NS(=O)(=O)c2ccc(N/C=C\C(=O)c3ccncc3)cc2)c1C	1	-4	-32	13	-0.8	8787	8
Cn1c(CN2CCN(S(C)(=O)=O)CC2)nc2cc([N+](=O)[O-])ccc21	5	-8	-10	-6	0.6	3207	8
Cc1ccc(-n2ncc3c(=O)n(CC(=O)N4CCN(c5ccccc5F)CC4)cnc32)cc1C	9	14	-5	-4	3.5	2567	5
Cn1c(C(=O)N2CCOCC2)cnc1Sc1ncc(C(F)(F)F)cc1Cl	-3	.	-5	.	5.2	3410	0
Fc1ccc(NC(=S)Nc2cccnc2)c(F)c1F	1	4	-3	3	0.8	5164	-1
CCO[C@@H]1OC(C(=O)N2CCOCC2)=C[C@H](C2CCCCC2)[C@H]1CCCO	3	.	-16	.	.	3985	.
CCn1c(C)c(C2=CCN(S(=O)(=O)c3ccc(C)cc3)CC2)c2ccccc21	-1	-2	-30	-5	0.2	5285	4
CC(=O)c1ccc(Oc2ncnc3sccc23)c(CN2CCOCC2)c1	9	10	3	7	5.7	8636	5
Cc1ccccc1Nc1nc(CSc2nnnn2-c2ccccc2)cs1	7	-4	11	7	9.5	3163	1
Fc1ccc(F)c(CN2CCN(c3ncccn3)CC2)c1	-7	2	-25	0	4.3	10866	11
COc1ccc2[nH]c3c(c2c1)CCN1C(=O)N([C@@H](C)C(=O)NCc2ccccc2)C(=O)[C@]31C	1	.	-46	.	0.8	5507	-4
O=C(C1CC1)N(CCN(Cc1ccccc1)C(=O)C1CC1)Cc1ccccc1	11	5	-6	6	2.8	3921	6
CC(=O)c1ccc(N2CCN(CC3CCCCC3)CC2)cc1	9	15	-17	10	3.4	4487	19
COc1ccc(S(N)(=O)=O)cc1C(=O)NCC(C)(C)N1CCCCC1	-2	7	-40	-1	5.4	3387	4
O=C(OC1CCN(c2ncc(C(F)(F)F)cc2Cl)CC1)c1cccc(C(F)(F)F)c1	-2	6	-17	-2	0.6	6345	5
Cc1ccc(SCCN2CCN(Cc3ccccc3)CC2)cc1	5	3	-10	-3	-2.5	3524	16
CCn1cc(C(=O)NCCC(=O)NC(C)C)c(=O)c2cc3c(cc21)OCO3	5	7	-18	2	-1.6	4015	-3
Cc1ccc(C)c(S(=O)(=O)N2CCN(CC(=O)Nc3ccc4c(c3)CCC4)CC2)c1	-14	-4	-14	-2	6.0	8137	3
CCc1cc2c(s1)NC(=O)CN=C2c1cccs1	5	5	-24	1	11	?	-3
O=C(COC(=O)CNC(=O)c1ccccc1)NC1CCCCC1	.	12	-6	2	1.0	3959	0
Fc1ccccc1NC(=S)N1CCN(c2ccccn2)CC1	1	.	-27	.	.	2095	.
Nc1ccc(NC(=O)Nc2ccc(N)cc2)cc1	-3	5	-13	-1	-0.1	3423	1
Cc1cc(OC(C)C(=O)N2CCN(c3ccccc3)CC2)c2c(C)c(C)c(=O)oc2c1 (centres undefined)	11	3	-4	3	11	4492	11

Only PrP 5UTR inh, for 4 of the compounds above:
Compound	PrP 5UTR inh
O=C(OC1CCN(c2ncc(C(F)(F)F)cc2Cl)CC1)c1cccc(C(F)(F)F)c1	-17
Cc1ccc(SCCN2CCN(Cc3ccccc3)CC2)cc1	-10
CCn1cc(C(=O)NCCC(=O)NC(C)C)c(=O)c2cc3c(cc21)OCO3	-18
Cc1ccc(C)c(S(=O)(=O)N2CCN(CC(=O)Nc3ccc4c(c3)CCC4)CC2)c1	-14

More results:
structure	BJeLR viability	Mtb hypoxia rep	PrP 5UTR inh	Mtb hypoxia rep growth	RN4220 kill	Bead autofluor	ugtP null kill
CCC1CCCCN1C(=O)CSc1nnc(-c2ccc(OC)cc2)o1 (centres undefined)	-6	.	4	.	8.4	4384	0
CCOC(=O)C1=C(CSc2nc3ccccc3s2)NC(=O)NC1c1ccc(OC)cc1 (centres undefined)	17	9	-44	3	14	11512	0
O=C(NN=Cc1cc(Br)c(O)c([N+](=O)[O-])c1)C(O)(c1ccccc1)c1ccccc1	.	10	.	9	34	.	-8
Cc1ccc(Cc2cnc(NC(=O)c3ccco3)s2)cc1	-12	-8	-144	-11	-2.2	8265	-25
COc1ccc(/C=C2\C(=O)NC(=S)N2C(=O)c2ccc(C)cc2)cc1	-16	1	-7	4	-11	2115	88
CN(CC(=O)Nc1ccc(F)cc1)C(=O)Cn1cnc2ccc(Cl)cc2c1=O	.	4	.	-4	11	.	0
O=[N+]([O-])c1ccc(NN=C2CC3CC=CC23)cc1 (centres undefined)	.	10	.	0	-2.8	.	0
Cc1cnc(C)c(N2CCC(C(=O)NC(C)c3cccs3)CC2)n1 (centres undefined)	-2	.	-22	.	1.7	2722	7
COCCNC(=O)CSCc1c(F)cccc1Cl	4	10	-12	12	4.2	6741	-1
CS(=O)(=O)Nc1ccc(C(=O)NCCSCc2c(F)cccc2Cl)cc1	0	-11	-24	10	-3.1	4395	-2

In another format: results already given.
> Cc1ccc(Cc2cnc(NC(=O)c3ccco3)s2)cc1
- BJeLR viability: -12
- Mtb hypoxia rep: -8
- PrP 5UTR inh: -144
- Mtb hypoxia rep growth: -11
- RN4220 kill: -2.2
- Bead autofluor: 8265
- ugtP null kill: -25
> COc1ccc(/C=C2\C(=O)NC(=S)N2C(=O)c2ccc(C)cc2)cc1
- BJeLR viability: -16
- Mtb hypoxia rep: 1
- PrP 5UTR inh: -7
- Mtb hypoxia rep growth: 4
- RN4220 kill: -11
- Bead autofluor: 2115
- ugtP null kill: 88

Other records follow:
structure	BJeLR viability	Mtb hypoxia rep	PrP 5UTR inh	Mtb hypoxia rep growth	RN4220 kill	Bead autofluor	ugtP null kill
FC(F)(F)C12CC(c3ccccc3)=NCCN1CCN2 (centres undefined)	-6	0	-8	-5	-4.0	8859	-2
COCCn1c(=NC(=O)CCS(=O)(=O)c2ccccc2)sc2c(OC)ccc(OC)c21	9	3	-9	5	5.7	6361	-8
COc1ccc2[nH]cc(S(=O)(=O)c3ccc(C(C)C)cc3)c(=O)c2c1	4	-3	-18	3	1.8	4237	2
O=C(CCl)N=c1sccn1Cc1ccc(Cl)cc1Cl	1	18	-30	28	2.3	4274	1
COc1cccc(CNc2cc(CSc3ccc(Cl)cc3)nc(C)n2)c1	-4	.	-19	.	1.8	3585	2
CCC(=O)Nc1ccc(C(=O)CSc2nnc(-c3ccc(NS(C)(=O)=O)cc3)n2C)cc1OC	4	11	-5	2	3.3	2225	7
O=C(COC(=O)CNC(=O)C1CCCCC1)Nc1cc(C(F)(F)F)ccc1Cl	.	16	-14	11	2.4	3896	-12
Cc1cc(NCc2ccccc2)nc(N2CCOCC2)n1	-3	.	-26	.	3.1	5169	-1
COc1cccc(N2CCN(C(=O)C3CCCN(c4ncnc5c4nc4n5CCCCC4)C3)CC2)c1 (centres undefined)	-6	3	-20	7	0.2	.	0
COc1ccc(C(=O)NCC(c2ccco2)N2CCOCC2)cc1OC (centres undefined)	-11	-1	-24	3	2.8	5556	4
Cc1nn(Cc2ccccc2)c(C)c1NC(=O)c1cccs1	0	8	-28	8	1.7	10350	-3
N=C(c1cccc([N+](=O)[O-])c1)N1CCCCC1	-7	9	5	7	2.1	5049	1
Cc1cc(C(=O)COc2cccc([N+](=O)[O-])c2)c(C)n1C1CC1	.	7	-52	2	6.6	?	9
Cc1nn(-c2ccccc2)c(=S)n1-c1ccccc1	5	.	2	.	1.4	2489	2
COC(=O)C1C(O)=C(C=Nc2cccc3ccccc23)C(=O)CC1(C)C (centres undefined)	-2	9	-25	-10	3.9	5626	7
COc1ccc(NC(=O)CN(C)CC(=O)Nc2sc3c(c2C(N)=O)CCC3)cc1	-2	-1	-9	10	1.3	?	-1
COc1ccc(CN(C)CCc2ccccn2)c(OC)c1OC	-5	3	-33	7	3.3	9801	5
Cc1nc2ccc(C(=O)O)cc2[nH]1	-1	5	2	-2	0.0	3766	6
O=C(Nc1nnc(-c2ccccc2)o1)C1CCCCC1	-4	8	-27	5	4.0	5963	15
NNC(=O)CCc1c[nH]c2ccccc12	-2	.	-8	.	1.6	2993	1
CCN1C(=O)CC(N2CCN(c3ccc(C(=O)c4ccncc4)cc3)CC2)C1=O (centres undefined)	1	5	-4	1	12	20385*	7
C=CCC(CC(=O)NCCO)C(=O)NC(C)COC(=O)C(CC=C)Cc1ccc(F)cc1 (centres undefined)	.	5&12&12	.	1&3&2	6.1&5.7&-0.8	.	6&15&-3
CC(C)NC(=O)c1ccc(OC2CSC2)cc1	12	.	-21	.	1.7	2854	0
COc1ccccc1CNC(=O)CN(C)S(=O)(=O)c1ccc(Br)s1	1	6	-15	7	3.2	3572	-1
COc1ccc2oc(=O)cc(C)c2c1	4	.	-18	.	-0.4	2950	0
COc1ccccc1-n1c(SCC(=O)N2CCOCC2)nc(O)cc1=O	6	-24	-15	-8	-1.3	6167	-4
O=c1oc2ccc(Cl)cc2cc1-c1ccccc1	-4	10	-32	5	6.9	2156	-7
CCC1Oc2ccc(C)cc2N(CC(=O)NCC2COc3ccccc3O2)C1=O (centres undefined)	-10	7	5	4	2.2	5972	9
N#Cc1nc(N2CCOCC2)nc(N2CCOCC2)n1	0	.	-13	.	7.7	2443	12
CCOC(=O)C1C2COc3ccc(C)cc3C2N2C(=O)CN(Cc3ccc(Cl)cc3)C(=O)[C@@]12C (some centres undefined)	.	15	.	3	5.9	.	2
O=C(c1ccc(C(=O)N2CCCCCC2)cc1)N1CCCCCC1	-5	19	-20	9	-10.0	3856	-1
O=C(O)C1C2C=CC3(CN(c4cccc(C(F)(F)F)c4)C(=O)C13)O2 (centres undefined)	2	12	-15	6	5.1	11317	7
C=CCN1C(=O)/C(=C/c2ccccc2)S/C1=N/c1nccs1	-19	.	20	.	.	6979	.
COc1cc(C=NOCC(=O)NC2CCCCC2)ccc1OCc1ccccc1	.	0	.	2	-1.8	.	2
C=CCOc1ccc(-c2nc3c(c(=O)[nH]c(=O)n3CCCC)n2C)cc1OC	-3	.	-3	.	.	3358	.

Rows are unselected (roughly 4% active in at least one column).
